MbtI inh = MbtI salicylate synthase inhibition | P9WFX0 | purified MbtI enzyme, fluorescence intensity read-out | AID 493033 | inhibition, %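 (about 17 µg/mL by stock and volumes)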 | 0.89% of 100,000 active;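 active = above 50% in both replicates, above 80% if mildly self-fluorescent; inactive = the rest, strongly fluorescent compounds included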;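 also: 0% = mean of negative and 100% = mean of positive controls; one replicate is shown; some compounds called inactive have numbers as strong as hits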
Target sequence (P9WFX0 whole entry, looked up): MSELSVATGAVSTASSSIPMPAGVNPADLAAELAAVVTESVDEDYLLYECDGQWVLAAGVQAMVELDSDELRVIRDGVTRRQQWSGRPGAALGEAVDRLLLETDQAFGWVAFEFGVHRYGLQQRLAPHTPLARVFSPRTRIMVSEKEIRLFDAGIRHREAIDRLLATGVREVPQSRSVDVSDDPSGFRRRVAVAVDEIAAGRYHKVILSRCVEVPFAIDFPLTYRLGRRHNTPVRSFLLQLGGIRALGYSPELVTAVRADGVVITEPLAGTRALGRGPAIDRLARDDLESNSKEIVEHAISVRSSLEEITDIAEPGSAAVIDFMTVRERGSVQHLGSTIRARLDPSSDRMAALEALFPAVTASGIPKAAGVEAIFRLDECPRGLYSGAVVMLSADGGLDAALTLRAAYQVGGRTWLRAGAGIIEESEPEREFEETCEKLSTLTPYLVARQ
MenB inh = blocks the Mycobacterium tuberculosis MenB enzyme. P9WNP5. MenB enzyme assay, absorbance read-out; some hits fall short of the stated cut. inhibition, %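 (about 12 µg/mL by stock and volumes)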. 0.43% of 100,000 active;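 active = mean of two replicates above 30%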;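 also: 0% = no compound and 100% = wells with inactive enzyme; the first replicate is given; strong numbers were not always called active; inactives centre near -10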
PV pol inh = poliovirus RNA polymerase inhibition; poliovirus polymerase elongation, fluorescence polarization; stronger effect = lower value; % elongation, % (compound at 16.7 µg/mL); 0.66% of 150,000 active; P03300; in the data active = % elongation below about 90%; also: some results filed as inactive read as strong as hits
Target sequence (P03300 1749-2209 limits assumed): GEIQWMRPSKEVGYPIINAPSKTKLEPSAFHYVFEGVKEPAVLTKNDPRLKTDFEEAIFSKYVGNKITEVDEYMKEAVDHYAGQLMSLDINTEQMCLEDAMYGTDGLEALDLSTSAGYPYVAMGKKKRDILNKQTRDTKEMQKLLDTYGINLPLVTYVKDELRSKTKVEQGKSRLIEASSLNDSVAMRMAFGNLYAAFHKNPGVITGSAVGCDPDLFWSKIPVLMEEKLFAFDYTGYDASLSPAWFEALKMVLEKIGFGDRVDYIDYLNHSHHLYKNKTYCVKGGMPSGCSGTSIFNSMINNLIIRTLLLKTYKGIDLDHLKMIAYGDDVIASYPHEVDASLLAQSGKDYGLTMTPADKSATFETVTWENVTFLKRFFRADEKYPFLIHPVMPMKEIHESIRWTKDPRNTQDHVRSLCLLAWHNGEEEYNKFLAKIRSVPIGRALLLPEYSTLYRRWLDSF
PV pol inh intensity = also measured in PV pol inh; calls as there; % elongation; measured here: total intensity read-out; formula for this scale not given here;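 total fluorescence in place of polarization; lower means less elongation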
* = called active by the depositor; x = not tested or not shown; & = joins results of further samples.

Under each structure – MbtI inh	MenB inh	PV pol inh intensity	PV pol inh
> CCc1ccc(NC(=O)CCS(=O)(=O)c2ccc3c(c2)CC(=O)N3C)cc1
  -1	-14	102	104
> CC(=O)N(c1ccc(C)c(C)c1)C1C=CS(=O)(=O)C1 (stereo not drawn)
  -19	1	102	104
> CC(C)CC(=O)Nc1ccccc1NC(=O)CC(C)C
  4	-5	100	100
> CC(C)CCNC(=O)c1ccc2c(=O)n3c(nc2c1)CCCCC3
  -6	-19	101	105
> COC(=O)c1cc2occc2n1Cc1cn2ccccc2n1
  4	-28	106	99
> CCOC(=O)c1c(/N=C/N(C)C)sc(C(=O)OC)c1C
  2	-42	92	103
> COc1ccc(C2=CSC3=C(C(=O)c4cccc(S(=O)(=O)N5CCOCC5)c4)CCN23)cc1
  13	-93	124	120
> CCC1CCCCN1C(=O)CSc1cccc[n+]1[O-] (stereo not drawn)
  1	6	109	100
> CCn1c(SC)nnc1C1CCCN(S(=O)(=O)c2ccc3c(c2)OCCO3)C1 (stereo not drawn)
  -4	-29	101	100
> COc1c(NC(=O)N2CC(C)OC(C)C2)csc1Cl (stereo not drawn)
  -6	6	103	95

Next results follow:
Under each structure – MbtI inh	MenB inh	PV pol inh intensity	PV pol inh
> Cn1c(=O)cc(OCC(=O)Nc2ccc(F)cc2F)c2ccccc21
  -5	-9	103	98
> Oc1ccccc1-n1cccc1
  x	7	105	102
> CNC(C)[C@@H](O)c1ccc(O)cc1 (stereo partly drawn)
  x	2	105	98
> Cc1cc(C)nc(SCC(=O)Nc2ccc(N3CCOCC3)cc2)n1
  -5	17	99	100
> Cn1c(-c2ccccc2)c(C(=O)COC(=O)[C@@H]2CCCN2C(=O)c2cccs2)c2ccccc21
  -9	-36	114	108
> N#Cc1ccc(OCC(=O)OCC(N)=O)cc1
  -10	4	110	104
> O=C(Cc1ccccc1)Nc1ccc2c(c1)OCO2
  8	-10	109	104
> O=C(O)CCN1C(=O)S/C(=C\c2cccs2)C1=O
  14	-39	100	98
> Cc1ccc(OCC(=O)Nc2cc(-c3nn(C)c(=O)c4ccccc34)ccc2N2CCOCC2)cc1
  14	-1	100	102
> CCOC(=O)c1ccc(-c2ccc(-c3nc4ccc(S(N)(=O)=O)cc4[nH]3)o2)cc1
  120	-8	105	112

Going on with the list:
Under each structure – MbtI inh	MenB inh	PV pol inh intensity	PV pol inh
> COc1ccc(NC(=O)c2ccccc2N(C)S(C)(=O)=O)cc1
  -1	-12	101	99
> O=C(N/C(=C\c1ccc2c(c1)OCO2)C(=O)N1CCOCC1)c1ccccc1Cl
  3	-12	97	100
> Cc1ccc(C(=O)CSc2nnc(-c3ccc4c(=O)n5c(nc4c3)CCCCC5)o2)s1
  -10	-7	112	108
> COC(=O)CSc1cc(C(=O)c2nccn2C)c2ccccc2n1
  7	0	97	97
> COc1ccc2c(CN(C)CC(=O)Nc3ccc(N4CCOCC4)cc3)cc(=O)oc2c1
  19	-17	x	x
> N#C/C(=C\Nc1cccc(Cl)c1)c1nc2ccccc2[nH]1
  -38	-55	102	102
> CN(C)CCCN1c2ccccc2CCc2ccc(Cl)cc21
  -3	-11	100	101
> Nn1c(SC2CCOC2=O)nnc1-c1cccnc1 (stereo not drawn)
  1	-18	100	106
> CC1CCC(n2cccc2)CC1 (stereo not drawn)
  1	8	102	98
> CCC(=O)c1ccc(OCC(=O)N2CCN(S(=O)(=O)c3cccc(C(F)(F)F)c3)CC2)cc1
  -7	0	96	99

Some of the entries above, set out differently.
structure	MbtI inh	MenB inh	PV pol inh intensity	PV pol inh
COC(=O)CSc1cc(C(=O)c2nccn2C)c2ccccc2n1	7	0	97	97
COc1ccc2c(CN(C)CC(=O)Nc3ccc(N4CCOCC4)cc3)cc(=O)oc2c1	19	-17	x	x
N#C/C(=C\Nc1cccc(Cl)c1)c1nc2ccccc2[nH]1	-38	-55	102	102
CN(C)CCCN1c2ccccc2CCc2ccc(Cl)cc21	-3	-11	100	101
Nn1c(SC2CCOC2=O)nnc1-c1cccnc1 (stereo not drawn)	1	-18	100	106
CC1CCC(n2cccc2)CC1 (stereo not drawn)	1	8	102	98
CCC(=O)c1ccc(OCC(=O)N2CCN(S(=O)(=O)c3cccc(C(F)(F)F)c3)CC2)cc1	-7	0	96	99

The list goes on:
Under each structure – MbtI inh	MenB inh	PV pol inh intensity	PV pol inh
> COc1ccc(-c2nnc3sc(CN4CCc5ccccc54)cn23)cc1
  1	-19	101	99
> CNC(=O)NC(=O)C(Sc1nnc(SC)s1)c1ccccc1 (stereo not drawn)
  -6	-25	107	99
> O=C(c1ccc2c(c1)OCCO2)C1CCCCC1
  -12	-17	99	102
> CSc1nc(N)nn1CCC#N
  -6	-2	106	106
> COC(Cn1c(-c2ccc(Cl)cc2)n[nH]c1=S)OC
  34	-16	97	102
> CN(CC(=O)Nc1c(Cl)cccc1Cl)CC(=O)N1CCc2ccccc21
  -5	-43	107	102
> COc1ccc(CC2CCc3ncc(C)cc3C2)cc1 (stereo not drawn)
  -2	-4	106	102
> NS(=O)(=O)c1ccc(CCNC(=O)c2ccc(/C=N/O)cc2)cc1
  -19	11	98	99
> Cc1cc(N2CCCN(C)CC2)nc2cc(Cl)ccc12
  -135	-24	102	99
> CC(C)CNc1oc(COc2ccccc2F)nc1C#N
  -9	-5	104	102

Other compounds
Under each structure – MbtI inh	MenB inh	PV pol inh intensity	PV pol inh
> COc1ccccc1-n1c(CNC(=O)c2ccccc2)n[nH]c1=S
  18	-31	103	103
> COc1ccc(CN(C)S(=O)(=O)c2cn(C)c(=O)n(C)c2=O)cc1OC
  -6	-4	98	100
> Cc1oc(-c2ccccc2Cl)nc1CSCC(=O)NC1CCCC1
  4	-1	102	102
> CCC1CCCCN1C(=O)COC(=O)c1cncc(Br)c1 (stereo not drawn)
  -11	x	104	102
> OC(COc1cccc2cccnc12)Cn1c2ccccc2c2ccccc21 (stereo not drawn)
  0	-25	109	105
> COc1cccc(NC(=O)N2CCC(C(=O)O)CC2)c1
  -10	5	103	102
> COc1ccc(C(F)(F)F)cc1NC(C)=O
  -7	3	103	100
> CCOC(=O)C1=C(C)NC2=C(C(=O)c3ccccc32)C1c1cccnc1 (stereo not drawn)
  -15	-7	102	100
> CC(=O)N(Cc1ccc(C(C)C)cc1)c1ccc2oc(-c3ccccc3)nc2c1
  104	-34	101	103
> COc1ccccc1OCC(=O)Nc1oc(-c2ccccc2)c(-c2ccccc2)c1C#N
  16	-38	104	101

(list continues)
Under each structure – MbtI inh	MenB inh	PV pol inh intensity	PV pol inh
> Cc1ccc(Nc2nc(C(=O)N3CCCCC3)cs2)cc1
  x	1	98	100
> CCCNC(=O)C(Sc1ccccc1)c1ccccc1 (stereo not drawn)
  -19	-28	102	101
> N#Cc1c(N)nc2c(c1N)CC(=O)N2c1ccccc1
  7	7	112	98
> CC(C)OC(=O)C(N)c1ccccc1 (stereo not drawn)
  -7	-1	104	103
> COc1cc(OC)c(C(=O)N2CCN(c3ccccc3F)CC2)cc1OC
  x	-11	107	106
> C#CCNc1c2c(nc3nnnn13)CCCC2
  -2	14	102	103
> N#CCOC(=O)c1cccc(I)c1
  -6	-4	96	103
> C=CCN1CCN(C(=O)c2cc(OC)c(OC)cc2OC)CC1
  -19	-13	104	101
> Cc1ccc(-c2nc3ncccc3o2)cc1NC(=O)C(C)(C)Oc1ccc(Cl)cc1
  4	-47	105	100
> CCCCN1COc2ccc(CCNC(=O)c3ccc(Cl)cc3)cc2C1
  x	-13	108	106

Later entries.
Under each structure – MbtI inh	MenB inh	PV pol inh intensity	PV pol inh
> Cc1cc(N2CCCC2)nc(SCC(=O)c2ccccc2)n1
  -14	-43	101	105
> CCC(=O)Nc1c(C(=O)OC)sc2ccccc12
  106	0	103	100
> Cc1ccc(C2=[N+]([O-])C3(CCCCC/C3=N\NC(N)=S)N(O)C2(C)C)o1 (stereo not drawn)
  5	-17	102	101
> CCn1c(=O)cc(OCC(=O)NCCCN2CC(C)CC(C)C2)c2ccccc21 (stereo not drawn)
  8	-5	103	101
> CC1CCCCC1NC(=O)c1ccc[nH]c1=S (stereo not drawn)
  84	-32	x	x
> COC(=O)c1cc(=O)c2cc(C)ccc2o1
  -28	-22	101	103
> CC(C)OC(=O)C(C)(C)Oc1ccc(C(=O)c2ccc(Cl)cc2)cc1
  -10&-6	-8&4	102&102	99&99
> CCN(CC)S(=O)(=O)c1ccc(/C=C/C(=O)Nc2ccc(-n3cnnn3)cc2)cc1
  21	4	101	108
> OC1(C(F)(F)F)CC(/C=C/c2ccccc2)=NO1 (stereo not drawn)
  8	-21	105	103
> CN(C)CC1CCCCC1OC(=O)c1ccccc1Cl (stereo not drawn)
  -9	x	104	100

Following part
Under each structure – MbtI inh	MenB inh	PV pol inh intensity	PV pol inh
> Nc1cc2c(cc1C(O)(C(F)(F)F)C(F)(F)F)OCCO2
  -11	x	104	102
> CCOC(=O)Cn1c(=O)c(=O)n(C)c2c1c(C)nn2-c1ccccc1
  -2	3	102	102
> CC1(O)COc2ccccc2O1 (stereo not drawn)
  -7	-26	99	104
> N#C/C(=C\Nc1ccc(OC(F)(F)F)cc1)C(=O)c1ccco1
  13	11	102	102
> c1coc(CNc2ncnc3nc[nH]c23)c1
  -7&-13	0&1	100&103	101&100
> COc1ccc(C(=O)Nc2ccccc2)cc1S(=O)(=O)N1CCN(c2ccccc2)CC1
  -18	-16	103	100
> C1CCN(CC2COC3(CCCCC3)O2)CC1 (stereo not drawn)
  -10	x	105	102
> O=C(Nc1ccccc1)C(Cc1ccccc1)N1C(=O)C2C3C=CC(C3)C2C1=O (stereo not drawn)
  -6	-13	103	103
> C=CCNc1nc(-c2ccccc2)cs1
  55	-7	100	101
> CCCN1C2=S=C(CSc3nc4ccccc4n3CCC)C(=O)N2c2ccccc21
  -5	-6	95	100

Additional entries:
Under each structure – MbtI inh	MenB inh	PV pol inh intensity	PV pol inh
> COc1ccc(OC)c(CNC(=O)Cn2ncc3c(=O)oc4ccc(C)cc4c32)c1
  -3	-9	103	102
> O=C(CNc1ccccc1)c1ccc(Cl)cc1
  -12	-29	103	101
> O=C(Cc1c(F)cccc1Cl)Nc1ccc2nc3n(c(=O)c2c1)CCCCC3
  -12	-15	105	104
> CCCNc1nc(SCc2ccc(Cl)cc2)nnc1C
  -1	-36	99	102
> O=C(CN1C(=O)c2ccccc2C1=O)c1ccc(OC(F)F)cc1
  1	1	96	104
> Cc1ccc(-c2cc3c(n2-c2ccccc2)CC(C)(C)CC3=O)cc1
  2	-14	102	104
> COc1ccc(C(=O)OCC(=O)c2cc3c4c(c2)CC(=O)N4CCC3)cc1S(=O)(=O)N(C)C
  8	5	100	105
> CN(C)c1ccc(-n2nc3ccc4ccccc4c3n2)cc1
  87	26	104	103
> CCOC(=O)c1[nH]c(C)c(C(=O)OCCN2C(=O)c3ccccc3C2=O)c1C
  -22	23	93	93
> CN/C=C1\C(=O)C(C)(C)Oc2ccc3ccc(=O)oc3c21
  5	-11	107	102

The list goes on.
Under each structure – MbtI inh	MenB inh	PV pol inh intensity	PV pol inh
> NC(=O)C(C(N)=O)C1CCS(=O)(=O)C1 (stereo not drawn)
  x	-17	107	110
> CC1(C)Cc2c(sc3ncn4nc(-c5ccco5)nc4c23)C(C)(C)N1
  14	5	102	101
> CC1(C)CC(=O)c2sc(NC(=O)CN3CCN(C(=O)c4ccco4)CC3)nc2C1
  -89	-14	104	106
> CCOc1ccc(-c2cn3c(c2C)-c2cccn2CC3)cc1
  x	-24	185	158
> O=C1c2cccnc2C(=O)N1Cc1ccc(S(=O)(=O)Nc2cccnc2)cc1
  -13	2	103	103
> CCOc1ccc(NC(=O)NC23CC4CC(CC(C4)C2)C3)cc1
  30	-17	105	103
> CCOc1ccc2c(=O)c(Oc3ccc(OC)cc3)coc2c1
  2	-26	101	102
> Cc1ccccc1CSc1[nH]c(=O)ncc1C
  15	-1	104	102
> COc1ccc(-c2nnc3n2N=C(N)CS3)cc1OC
  -2	11	102	102
> CC(C)(C)C(/C=C/c1ccc(Cl)cc1Cl)n1nnnc1C(C)(C)N1CCOCC1 (stereo not drawn)
  13	-20	99	100

Other structures follow.
Under each structure – MbtI inh	MenB inh	PV pol inh intensity	PV pol inh
> O=C(O)CCC(=O)Nc1cccc(C(=O)N2CCCCC2)c1
  -9	-40	101	99
> O=C(OCc1cc(=O)n2ccsc2n1)C1CCCCC1
  -16	-13	103	103
> O=C(O)CNC(=O)C1CC1
  -4	-52	92	101
> NS(=O)(=O)c1nn2cc(-c3ccccc3)nc2s1
  x	-36	97	97
> CCc1nc2cccnc2n1-c1ccc(CC(=O)NC(C)CC)cc1 (stereo not drawn)
  -9	-8	104	102
> Cc1ccc(C2C3=C(CC(C)(C)CC3=O)Nc3onc(C)c32)cc1 (stereo not drawn)
  97	-1	101	100
> CCOC(=O)N1CCN(C(=O)CSc2nc3c(cnn3-c3ccc(C)cc3)c(=O)[nH]2)CC1
  12	9	100	101
> O=C(O)C1CSC(c2ccncc2)=N1 (stereo not drawn)
  17	90*	103	101
> COc1ccc(NC(=O)CSc2ncccc2C(=O)Oc2ccccc2Cl)cc1OC
  18	-8	100	101
> Cc1cc(F)ccc1NS(=O)(=O)c1cc2[nH]c(=O)c(=O)[nH]c2cc1C
  -150	-5	102	101

Remaining list, next part:
Under each structure – MbtI inh	MenB inh	PV pol inh intensity	PV pol inh
> Cc1ccc2oc(=O)c3cnn(CC(=O)N4CCCCC4C)c3c2c1 (stereo not drawn)
  -8	-11	105	101
> CC(C)C(=O)N1CCC(c2nc(-c3ccc(F)cc3)no2)CC1
  9	24	102	101
> CCOC(=O)c1c(C2CC2)csc1NC(=O)CSc1nnc(C(CC)N(C)C)o1 (stereo not drawn)
  10	-33	103	105
> O=S1CCCCC1
  6	23	99	98
> CCOc1nc(-c2ccccc2)ccc1-c1noc(-c2ccccc2F)n1
  -9	-35	101	101
> CN(C)C(=O)/C=C/c1ccc(Cl)cc1
  11	-28	113	106
